T cruzi inh = inhibitors of intracellular T. cruzi growth, primary screen, luminescence, NIH3T3 host cells. T. cruzi beta-gal in NIH3T3, 90 h. inhibition, % (no concentration beside the values). 300,000 compounds, 1.4% hits. AID 1885, 2009;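 active = mean inhibition across valid replicates above about 55%, limit read from the data; inconclusive = mean below that limit but half or more replicates reach it; inactive = mean below it, under half of replicates reach it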;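 also: signal also drops with host cell toxicity which is not excluded here; 0% = plate median of DMSO wells and 100% = zero luminescence signal; higher percent means less beta-gal luminescence so fewer parasites; stock transfer was 50 nL into about 50 µL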
Calb FLC = C. albicans growth inhibition with fluconazole, primary screen, CaCi-2 strain, Alamar Blue fluorescence | AID 1979, 2009 | 300,000 compounds, 0.57% hits | C. albicans CaCi-2 (fluconazole-resistant clinical isolate) + fluconazole, 48 h | growth inhibition, % (test concentration not listed);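 active = most replicates above 75%; inconclusive = exactly half above 75%; inactive = most below 75%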;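 also: all wells also contain fluconazole at 8 µg/ml as a sub-toxic cotreatment; 0% = median of DMSO wells and 100% = median of geldanamycin control wells; wells of about 8 µL received 7.5 nL stock; the first replicate is given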
AF4-AF9 inh = inhibitors of AF4 peptide binding to AF9, primary screen, biochemical, AlphaScreen, biotin-AF4 peptide, FLAG-AF9, single point. Protein AF-9 (Homo sapiens), P42568. inhibition, % at 10 µM. 350,000 compounds, 0.47% hits. AID 651704, 2012;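 active = every replicate reaching a set inhibition limit, whatever the replicate mean, cut at about 25% in these data; inconclusive = mean inhibition reaches that limit but some replicates miss it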;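 also: 0% = plate neutral control median and 100% = total signal loss; the record names both 10 and 1 µM as test concentration; the first replicate is given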
Target sequence (P42568 whole entry, looked up): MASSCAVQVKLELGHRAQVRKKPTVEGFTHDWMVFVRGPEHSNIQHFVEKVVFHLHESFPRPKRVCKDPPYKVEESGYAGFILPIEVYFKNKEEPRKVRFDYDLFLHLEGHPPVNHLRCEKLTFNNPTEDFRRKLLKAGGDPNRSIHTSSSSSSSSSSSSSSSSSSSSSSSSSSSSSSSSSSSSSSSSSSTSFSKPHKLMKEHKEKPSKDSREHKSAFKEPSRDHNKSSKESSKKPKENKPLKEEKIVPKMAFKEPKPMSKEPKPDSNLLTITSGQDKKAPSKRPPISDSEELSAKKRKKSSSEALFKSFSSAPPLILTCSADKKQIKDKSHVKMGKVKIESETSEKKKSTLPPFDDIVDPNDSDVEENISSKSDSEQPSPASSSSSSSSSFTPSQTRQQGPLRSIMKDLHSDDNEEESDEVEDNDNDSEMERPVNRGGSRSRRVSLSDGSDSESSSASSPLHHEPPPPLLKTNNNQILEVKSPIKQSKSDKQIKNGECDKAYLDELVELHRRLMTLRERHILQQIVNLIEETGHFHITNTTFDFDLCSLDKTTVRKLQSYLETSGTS
Vif TR-FRET = inhibitors of Vif binding to APOBEC3G peptide, primary screen, biochemical, TR-FRET, GST-Vif 1-94, biotin-A3G peptide, dose response retest (AID 1117319) | Virion infectivity factor (Human immunodeficiency virus type 1 group M subtype B (isolate … | TR-FRET GST-Vif / biotin-A3G peptide binding; higher % means a stronger effect; test concentration not given here; strong numbers were not always called active | inhibition, %; hits with a dose series show IC50 in µM | 260,000 compounds, 0.57% hits;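 active = above the screen mean plus three standard deviations and confirmed in dose response; inconclusive = results disagree or hit not tested in dose response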;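 also: Vif residues 1-94 fused to GST binding biotinylated APOBEC3G peptide 110-148; 0% = full assay without inhibitor and 100% = GST in place of GST-Vif; retest series ran down from 100 µM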
Ecoli rRNA inh = reduced GFP signal of wild-type E. coli, primary screen, bacterial rRNA inhibitor project, GFP/RFP fluorescence, OD600, single point; E. coli WT GFP vs humanized-ribosome RFP mutants, 24 h; stronger effect = lower value; DMSO median 0, no signal -100; GFP signal change (wild-type ribosome), % (test concentration not listed); 350,000 compounds, 1.6% hits; AID 720706, 2013;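 active = significant combined selectivity score with lowered wild-type GFP, culture density cut under 30%, mutant RFP and density less affected; inactive = any of these conditions unmet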; also: one replicate is shown; some compounds called inactive have numbers as strong as hits
Bfl-1 A1 inh = caspase 3/7 activation in MEF A1-2A-BIM cells, primary screen, A1 inhibitor project, cell-based, luminescence, HTS; 330,000 compounds, 0.066% hits; Caspase-Glo 3/7 luminescence, 3 h; percent of clofoctol response, vehicle zero; caspase activation, % (no concentration beside the values);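 active = over half of replicate activation scores above 10%, or exactly half above 10 with the replicate mean above 10; inconclusive = replicate mean below 10 yet half the replicates above 10; inactive = over half of replicates below 10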;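 also: wells of about 30 µL received 50 nL stock; many hits fall short of the cut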
RanGTP-Imp inh = inhibitors of RanGTP-importin-beta interaction, primary screen, biochemical, FRET, CFP-Ran, YFP-importin-beta, homogeneous. Ran GTPase (GTP-bound) - importin-beta complex. cell-free CFP-Ran/YFP-importin-beta FRET ratio. inhibition, % (no concentration beside the values). 300,000 compounds, 1.1% hits. AID 2216, 2009;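 active = most replicates above 15%; inconclusive = exactly half above 15%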;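 also: 0% = DMSO wells and 100% = Ran loaded with GDP instead of GTP; wells of about 40 µL received 100 nL stock; the first replicate is given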
Beta apoptosis = inhibitors of cytokine-induced beta cell apoptosis, primary screen, luminescence; INS-1E cytokine-induced death, ATP luminescence, 48 h; percent of positive-control rescue, neutral wells zero; protection from apoptosis, % (concentration not given with the values); 300,000 compounds, 0.8% hits; AID 435005, 2010;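 active = all replicates at 75% or more, or half of them and the mean; inconclusive = half reach 75% but not the mean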;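 also: 0% = cytokine-treated negative control wells and 100% = positive control rescue; higher means more ATP so stronger rescue from cytokine killing; wells of about 40 µL received 100 nL stock; the first replicate is given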
Ecoli rRNA inh OD600 = recorded beside Ecoli rRNA inh, whose call it bears; OD600 change, %; measured here: OD600 growth;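 optical density of the mix in the first replicate; 0 = DMSO median and -100 = no signal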
Ecoli rRNA inh RFP = also measured in Ecoli rRNA inh; calls as there; RFP signal change, %; measured here: RFP humanized mutant strains;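 first replicate; 0 = DMSO median and -100 = no signal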
* hit, by the source's call; ? = inconclusive; / = no result given; & = joins results of further samples. The list is partial. The share of hits here may be higher or lower than overall.

Second line of a record – Bfl-1 A1 inh | RanGTP-Imp inh | Ecoli rRNA inh OD600 | AF4-AF9 inh | T cruzi inh | Vif TR-FRET | Ecoli rRNA inh | Calb FLC | Ecoli rRNA inh RFP | Beta apoptosis
1: CCc1[nH]nc(C(=O)N2CCCC(C(=O)c3cccc(OC(C)C)c3)C2)c1C (stereo unspecified)
  0.2 | -0.9 | -6 | -3.5 | 6 | 2% | 0 | -4 | -3.4 | 0
2: COc1ccc(NC(=O)CS(=O)CC(=O)Nc2ccc(OC)c(OC)c2)cc1 (stereo unspecified)
  0.7 | 1.9 | / | / | -1 | 15% | / | 1 | / | -5
3: O=C(NCC1CCCO1)C1CCN(C2CCN(Cc3ccco3)CC2)CC1 (stereo unspecified)
  -0.1 | 2.3 | 10 | -1.6 | 11 | 12% | 15 | -8 | 0.1 | -14
4: Cc1cnn(C(=O)c2cc(-c3ccccn3)nc3ccc(Cl)cc23)c1
  -0.1 | 0.3 | 4 | -2.5 | 3 | / | 10 | ? | 1.3 | -13
5: COn1c(-c2ccccc2)nc2c1CCc1c-2no[n+]1[O-]
  0.2 | -3.7 | / | / | -24 | 4% | / | -9 | / | -5
6: COC(=O)CSc1nnc(SCc2ccccc2)s1
  -0.1 | -4.1 | / | / | -10 | 1% | / | -4 | / | -12
7: COc1ccc(CCNC(=O)c2cccnc2)cc1OC
  1.0 | 0.5 | / | / | -4 | 4% | / | -6 | / | -2
8: N#C/C(=C\c1c[nH]c2ccccc12)C(=O)Nc1ncc(Cc2ccc(Cl)cc2Cl)s1
  1.0 | 46* | / | 0.9 | ? | 14% | / | -1 | / | 10
9: COc1cccc(-c2cc(C(=O)Nc3ccccc3)c3ccccc3n2)c1
  1.1 | -3.6 | 13 | -1.0 | / | / | 17 | -24 | 0.3 | /
10: CCCCn1c(SCC(=O)NCc2ccco2)nnc1-c1ccoc1C
  0.5 | 1.8 | / | / | -9 | ? | / | -1 | / | /
11: CC(=O)n1cc(/C=N/NC(=O)c2ccccc2Cl)c2ccccc21
  -0.2 | -2.7 | / | / | -12 | -1% | / | -5 | / | -7
12: CC(C)(C)C(=O)Nc1ccc(/C=C/C(=O)c2ccco2)cc1
  0.1 | 1.7 | 16 | -9.3 | 0 | / | 6 | 1 | -5.8 | 1
13: CCO[C@H]1OC(C(=O)NCc2ccccc2)=C[C@@H](C)[C@@H]1CCCO
  -0.3 | ? | 3 | -3.1 | -16 | ? | 10 | -3 | -6.1 | 1
14: Cc1cc(C(=O)N/N=C2/CC(C)CC(C)(C)C2)c(C)o1 (stereo unspecified)
  -0.6 | 2.7 | 0 | 2.7 | -4 | -2% | 12 | 5 | -3.2 | -2
15: Cc1ccc(S(=O)(=O)NCCC(=O)Nc2ncccc2O)cc1C
  1.5 | 1.9 | 6 | -0.6 | 1 | 0% | 0 | -8 | 0.3 | -3
16: CCOc1ccc(NC(=S)Nc2cccc3cnccc23)cc1
  -0.7 | 1.2 | / | / | -7 | 17% | / | 39 | / | -9
17: COc1cc(OC)cc(C(=O)N2CCN(C3CCCCC3)CC2)c1
  0.0 | 0.8 | 15 | 0.3 | -5 | 7% | 24 | 0 | 0.6 | -4
18: CCOCCCn1c(=S)[nH]c2cc(C(=O)NCC(OC)OC)ccc2c1=O
  0.5 | -5.3 | -2 | -0.9 | -5 | -7% | -1 | -5 | -4.9 | -6
19: Cc1nn(-c2ccccc2Cl)c(Cl)c1/C=C(\C#N)C(N)=O
  0.3 | -1.2 | 8 | 1.1 | -14 | -6% | 4 | 2 | -2.5 | -12
20: Cc1cccc(NC(=O)CCCNC(=O)c2ccc(Cl)cc2)n1
  -0.1 | 5.5 | / | -1.2 | -9 | / | / | 2 | / | -11
21: O=C(CSCc1ccc(Cl)cc1Cl)Nc1nccs1
  0.6 | 0.1 | 12 | -9.3 | -27 | / | 6 | 0 | -0.7 | -12
22: O=C(CN1C(=O)NC2(CCCC2)C1=O)OCc1ccc(Cl)cc1Cl
  -0.2 | -1.6 | 1 | -41 | -13 | 2% | 0 | -12 | 1.4 | 1
23: Cc1ccc(/C=C/C(=O)N2CCN(S(=O)(=O)/C=C/c3ccccc3)CC2)o1
  0.1 | -2.2 | 1 | 0.3 | 1 | / | 2 | 0 | -0.7 | -7
24: O=[N+]([O-])c1ccc2c(c1)nc1n2CCCCC1
  0.3 | -3.3 | 1 | -1.8 | 3 | 4% | -1 | -6 | 5.0 | -6
25: CC1(C)C[C@H](O)[C@@]23C[C@@H](OC2=O)[C@]2(C)C(=CCC4[C@@]5(C)CC[C@H](O)C(C)(C)C5CC[C@]42C)[C@@H]3C1 (stereo partly specified)
  0.8 | 8.0 | / | / | 11 | / | / | 3 | / | 5
26: O=C(c1ccc(NS(=O)(=O)c2cccs2)cc1)N1CCN(c2ccccc2Cl)CC1
  1.4 | -3.0 | -31 | 0.4 | 9 | 15% | -22 | 6 | 1.5 | 2
27: O=C(Nc1ccc(Cl)cc1)c1csc(Cc2ccccc2)n1
  0.5 | 0.2 | 24 | -1.8 | -1 | -7% | 4 | 16 | 7.0 | -6
28: CCCc1cc(=O)oc2c(CN3CCN(C)CC3)c(O)ccc12
  1.3 | 7.4 | 15 | 1.9 | 3 | 0% | 5 | 1 | 0.7 | -3
29: CCOc1cc(/C=N/NC(=O)c2ccncc2)cc(Cl)c1OS(C)(=O)=O
  0.1 | -0.6 | 4 | 3.6 | -10 | / | -11 | -6 | -3.2 | -1
30: Cc1ccc(NC(=O)c2ccoc2C)cc1C
  -7.4 | -2.8 | / | / | 10 | ? | / | -1 | / | 8
31: Cc1[nH]n(C(N)=S)c(=O)c1N=Nc1ccc(Br)cc1
  -6.9 | 0.7 | 8 | -2.5 | -21 | 2% | 6 | 1 | 4.8 | 36
32: O=C(CCC(=O)c1cccs1)NCc1ccncc1
  0.5 | -0.8 | -6 | -3.8 | -14 | 1% | 6 | -4 | -3.3 | -1
33: CSCc1nc2scc(-c3ccccc3)c2c(=O)[nH]1
  / | -0.1 | 6 | -2.8 | -2 | / | 7 | -33 | -0.8 | /
34: COc1cc([N+](=O)[O-])cc(/C=N/NC(=O)c2cncc(Br)c2)c1O
  -6.8 | 0.3 | -25 | 13 | -7 | 22% | -14 | -1 | 11 | -3
35: O=C(COC(=O)/C=C/c1cc(Br)ccc1F)Nc1ccc2[nH]c(=O)[nH]c2c1
  0.4 | 1.4 | 2 | -2.5 | -9 | -3% | -2 | / | 0.1 | -3
36: CCOC(=O)c1cn(Cc2c(C)c(C)c(C)c(C)c2C)nn1
  0.1 | ? | 11 | -4.1 | 4 | -15% | 2 | 1 | -0.8 | 3
37: NCCNC(=O)c1c(O)c2cccc3c2n(c1=O)CCC3
  0.6 | 3.9 | -14 | 4.4 | 17 | / | 6 | 4 | 1.4 | /
38: CCN1CCN(C(=O)c2cc3nc(-c4ccccc4)cc(C(F)(F)F)n3n2)CC1
  -0.1 | -0.8 | 11 | / | 12 | 6% | 1 | -11 | -2.5 | -3
39: O=C(NCCC(=O)N1CCN(c2ccccc2O)CC1)c1ccc(Br)cc1
  0.4 | 8.8 | 4 | ? | -8 | 9% | -4 | 21 | 1.5 | /
40: COc1ccc(NC(=S)N(Cc2cccnc2)Cc2ccco2)cc1
  0.4 | 1.9 | -2 | -1.5 | 53 | 27% | -9 | -30 | -0.6 | -11
41: CN(CC(=O)Nc1ccc(Cl)cc1)C(=O)CCc1c[nH]c2ccccc12
  -0.8 | -4.0 | 3 | -0.2 | -5 | 2% | -3 | -4 | 0.5 | 3
42: O=C(N/N=C/c1ccc2c(c1)OCO2)c1cc(-c2ccccc2)nc2ccccc12
  -0.2 | 1.0 | 3 | -1.4 | 1 | / | 4 | 17 | 3.6 | 3
43: COc1cc(N=c2ssnc2Cl)c(OC)cc1Cl
  -0.3&-0.1 | 0.6 | -18 | -15 | -3 | ? | -16 | -15 | -17 | 3&5
44: CC(C)n1nccc1N(Cc1ccc(Br)cc1)S(=O)(=O)c1ccccc1
  -0.3 | -0.7 | -24 | 1.8 | 25 | 0% | -8 | 3 | 0.5 | 2
45: Clc1ccc(-c2csc3ncnc(N4CCc5ccccc5C4)c23)cc1
  -0.6 | -0.2 | -9 | -3.9 | 32 | / | -4 | 3 | 6.1 | -4
46: Cc1cccc(N2CCN(C(=O)Cc3c(C(=O)O)[nH]c4ccc(Cl)cc34)CC2)c1C
  -0.7 | 5.6 | / | / | -17 | 14% | / | 1 | / | 1
47: CCCCNc1nc(CC(C)=O)ns1
  -0.7 | 4.8 | / | / | 6 | 19% | / | 2 | / | /
48: COc1ccc(S(=O)(=O)N2CCC(C(=O)N[C@H](C(=O)N3CCCC3)C(C)C)CC2)cc1
  0.1 | ? | 10 | -11 | 20 | / | 3 | -1 | -2.6 | -6
49: O=C(Cn1cc(C(F)(F)F)ccc1=O)N1CCc2ccccc2C1
  1.4 | / | 13 | -2.3 | / | / | 6 | / | -1.3 | -4
50: Cc1nc(CCNC(=O)COc2ccccc2)cs1
  -0.4 | -1.1 | 0 | -5.5 | -14 | ? | -1 | -9 | -8.7 | 2
51: O=C(NCCO)c1ccc2nc(Cc3cccc(Cl)c3)oc2c1
  0.3 | 0.5 | 4 | -1.2 | -10 | / | -1 | 1 | 1.4 | /
52: C[C@H]1C=C(C(=O)NCc2nc3ccccc3[nH]2)O[C@@H](OCCCCO)C1
  0.3 | 0.1 | / | / | 1 | / | / | -12 | / | /
53: Cc1ccc(S(=O)(=O)N2CCOCC2)cc1NC(=O)COc1cccc(Oc2ccccc2)c1
  2.1 | / | -11 | -1.6 | 15 | / | -5 | -2 | 5.3 | 1
54: O=C1C2CCCN2C(c2ccc(F)cc2)N1c1cccc(Cl)c1 (stereo unspecified)
  0.0 | -1.3 | 6 | -3.4 | -8 | 4% | 5 | -7 | -1.2 | -5

Source: PubChem
